Assay outcomes as filed in PubChem.
StopGo FLuc – FMDV 2A StopGo reporter, firefly signal; HEK cells with a luciferase reporter of 2A StopGo recoding; Potency, µM (doses to about 57.5 µM), for inactives: at the top dose signal change, negative = less light; actives 0.23% (n = 120,000); AID 1745856; active = well fitted falling curve with a large enough effect; inconclusive = small, poorly fitted or top-dose-only effect; inactive = no such curve, though single readings can be large or run the other way; note: nearly all actives have a fitted effect of over 60% in size; overnight with compound
StopGo RLuc – FMDV 2A StopGo reporter, Renilla signal. HEK cells with a luciferase reporter of 2A StopGo recoding. Potency, µM (doses to about 57.5 µM), for the others: at the highest dose signal change, negative = less light. actives 0.32% (n = 120,000); active means well fitted falling curve with a large enough effect; inconclusive means small, poorly fitted or top-dose-only effect; inactive means no such curve, though single readings can be large or run the other way; note: nearly all actives have a fitted effect of over 55% in size; overnight with compound
Active calls of the source: *; ? = inconclusive; & = joins results of further samples; [ ] = another dose, or the depositor's remark. % is set by controls: 0 for no effect and ±100 for the full control effect; potency is the fitted concentration of half-maximal effect.

A first look, 19 compounds:
Values run as follows: StopGo FLuc | StopGo RLuc
CCOC(=O)c1c(NC(=O)c2noc3c2CC(C)CC3)sc(C)c1C (stereo unspecified)
    -8% | -14%
CCc1noc(CN2CCN(c3oc(C4CC4)nc3C#N)CC2)n1
    -8% | -11%
Cc1cccc(NC(=O)CSc2nnc3scc(-c4ccccc4)n23)c1
    4% | 37%[activator]
Cc1ccc2oc(C(=O)Nc3nc(-c4ccc(F)cc4)ns3)c(C)c2c1
    -13% | -13%
CCc1ccc(CN2CCc3nc(N4CCN(CC)CC4)ncc3C2)cc1
    -8% | -9%
Cn1c(=O)c2c(ncn2CC(=O)Nc2cccc3ccccc23)n(C)c1=O
    2% | -11%
O=S(=O)(c1ccccc1)n1nc(-c2ccc(Cl)cc2)nc1NCc1ccccc1
    12% | -8%
COc1ccc(-c2nc3sc(CCNC(=O)c4ccccc4C)c(C)n3n2)cc1
    267%[activator] | 10%
O=C(OCCOC(=O)C12CC3CC(CC(Br)(C3)C1)C2)c1ccccc1
    -4% | -5%
COc1cc(NC(=O)CN2CCCN(S(=O)(=O)c3ccc(F)cc3)CC2)cc(OC)c1
    -11% | -6%
CC(C)Oc1ccccc1/C=C(/C#N)C(=O)Nc1cccc(C(F)(F)F)c1
    20% | ?
CCCNC(=O)N1CCN(c2oc(-c3ccco3)nc2C#N)CC1
    -1% | -4%
O=C(Nc1ccc(Cl)c(C(=O)NC2CCCCC2)c1)c1ccncc1
    -7% | 7%
CC(NC(=O)CSc1nc2c(c(=O)n(C)c(=O)n2C)n1Cc1ccccc1F)c1ccccc1 (stereo unspecified)
    6% | -4%
CCCN(C(=O)Cn1cnc2sc(C)c(S(=O)(=O)N3CCN(c4ncccn4)CC3)c2c1=O)c1cccc(C)c1
    -23% | -7%
c1ccc(CCC2CCNCC2)cc1
    -2% | -5%[1.06 µM]
Cc1cccc(-c2noc(CSc3n[nH]c(=O)c4cc(-c5ccco5)nn34)n2)c1
    -5% | -11%
CCOc1ccc(Oc2ccc(NC(=O)c3nn(C)c(=O)c4ccccc34)cc2)cc1
    25% | 6%
CCOc1ccc2c(c1)c(C(C)=O)c(C)n2CCc1ccccc1
    ? | ?

The list itself, previewed entries included:
Values run as follows: StopGo FLuc | StopGo RLuc
CCOC(=O)c1c(NC(=O)c2noc3c2CC(C)CC3)sc(C)c1C (stereo unspecified)
    -8% | -14%
CCc1noc(CN2CCN(c3oc(C4CC4)nc3C#N)CC2)n1
    -8% | -11%
Cc1cccc(NC(=O)CSc2nnc3scc(-c4ccccc4)n23)c1
    4% | 37%[activator]
Cc1ccc2oc(C(=O)Nc3nc(-c4ccc(F)cc4)ns3)c(C)c2c1
    -13% | -13%
CCc1ccc(CN2CCc3nc(N4CCN(CC)CC4)ncc3C2)cc1
    -8% | -9%
Cn1c(=O)c2c(ncn2CC(=O)Nc2cccc3ccccc23)n(C)c1=O
    2% | -11%
O=S(=O)(c1ccccc1)n1nc(-c2ccc(Cl)cc2)nc1NCc1ccccc1
    12% | -8%
COc1ccc(-c2nc3sc(CCNC(=O)c4ccccc4C)c(C)n3n2)cc1
    267%[activator] | 10%
O=C(OCCOC(=O)C12CC3CC(CC(Br)(C3)C1)C2)c1ccccc1
    -4% | -5%
COc1cc(NC(=O)CN2CCCN(S(=O)(=O)c3ccc(F)cc3)CC2)cc(OC)c1
    -11% | -6%
CC(C)Oc1ccccc1/C=C(/C#N)C(=O)Nc1cccc(C(F)(F)F)c1
    20% | ?
CCCNC(=O)N1CCN(c2oc(-c3ccco3)nc2C#N)CC1
    -1% | -4%
O=C(Nc1ccc(Cl)c(C(=O)NC2CCCCC2)c1)c1ccncc1
    -7% | 7%
CC(NC(=O)CSc1nc2c(c(=O)n(C)c(=O)n2C)n1Cc1ccccc1F)c1ccccc1 (stereo unspecified)
    6% | -4%
CCCN(C(=O)Cn1cnc2sc(C)c(S(=O)(=O)N3CCN(c4ncccn4)CC3)c2c1=O)c1cccc(C)c1
    -23% | -7%
c1ccc(CCC2CCNCC2)cc1
    -2% | -5%[1.06 µM]
Cc1cccc(-c2noc(CSc3n[nH]c(=O)c4cc(-c5ccco5)nn34)n2)c1
    -5% | -11%
CCOc1ccc(Oc2ccc(NC(=O)c3nn(C)c(=O)c4ccccc34)cc2)cc1
    25% | 6%
CCOc1ccc2c(c1)c(C(C)=O)c(C)n2CCc1ccccc1
    ? | ?
CC(=O)N1c2ccccc2C(=O)C1N1CCN(c2ccc(Cl)cc2)CC1 (stereo unspecified)
    -21% | -15%
O=C(c1cccs1)N1CCCc2cc(NS(=O)(=O)c3ccc(F)cc3)ccc21
    -13% | 95%[activator]
COc1cc(NC(=O)C(NS(=O)(=O)c2ccc3c(c2)CCCC(=O)N3)C(C)C)cc(OC)c1 (stereo unspecified)
    -12% | -9%
CCc1nnsc1C(=O)NC(C)c1ccc(SC)cc1 (stereo unspecified)
    14% | 15%
CCOC(=O)c1sc2ccccc2c1S(=O)(=O)Nc1ccc(C(C)=O)cc1
    107%[activator] | 314%[activator]
O=C(Nc1ccc(F)cc1F)c1ccn(Cn2nnc(-c3ccccc3)n2)n1
    62%[activator] | -6%
Cc1cc(C(=O)COC(=O)c2cc3ccccc3oc2=O)c(C)n1C1CC1
    22% | 13%
Cc1cccc(-n2c(/C=C/c3ccccc3O)nc3ccccc3c2=O)c1
    19% | -5%
CC(C(=O)Nc1ccc2[nH]c(=O)[nH]c2c1)N(C)Cc1cccc(Cl)c1Cl (stereo unspecified)
    2% | -5%
CCOC(=O)C1CCN(c2nc(-c3ccc(Br)cc3)nc3ccccc23)CC1
    -7% | 117%[activator]
CCOC(=O)c1ccc(Nc2nc(C(=O)OCC)nc3ccccc23)cc1
    16%&-7% | 5%&2%
Cc1ccc(N(CC(=O)N2CCN(c3cccc(C)c3C)CC2)S(=O)(=O)c2c(C)nn(C)c2C)cc1
    -20% | 2%
COc1cc(NC(=O)N2CCc3c(sc4c3CCCC4)C2c2ccccc2)cc(OC)c1OC (stereo unspecified)
    -11% | -14%
N#C/C(=C/c1ccc(OCC(F)(F)F)cc1)c1ccccn1
    166%[activator] | 9%
COC(=O)C(Cc1c[nH]c2ccccc12)NC(=O)COc1ccc(Cl)cc1Cl (stereo unspecified)
    ? | -3%
CCSc1nc(-c2ccccc2F)nc2c1Cc1c(CO)cnc(C)c1O2
    -10% | 2%
O=C(CSc1nc2nc[nH]c2c(=O)[nH]1)Nc1ccc(F)cc1F
    -9% | -11%
Cc1cc(C)cc(NC(=O)C2CCN(c3ncnc4c3sc3ncccc34)CC2)c1
    14% | -1%
COc1cc(Br)c(/C=C(/C#N)C(=O)C(C)(C)C)cc1OC
    23% | 18%
CCCCn1c(SCc2ccccc2C)nc2ccsc2c1=O
    -4% | 0%
Cc1ccc(CNC(=O)c2ccc(-c3nc(CS(=O)(=O)c4ccc(C)cc4)c(C)o3)cc2)cc1
    -13% | -11%
COC(=O)C(NC(=O)c1ccccc1Cl)(Nc1nc(C2CC2)cs1)C(F)(F)F (stereo unspecified)
    13% | 136%[activator]
COc1ccc(-c2cc(NC(=O)c3cccnc3)n(C3CCS(=O)(=O)C3)n2)cc1 (stereo unspecified)
    -2% | 7%
C=C(C)COc1ccc2c(=O)c(Oc3ccc(C(=O)OCCC)cc3)c(C)oc2c1
    45%[activator] | -2%
O=C(CSc1c2c(nc3cc(Cl)ccc13)CCCC2)Nc1nc2ccccc2s1
    3% | ?
O=C(NC1CCCCC1)c1cc(-c2ccc(Cl)cc2)nc2ccccc12
    10% | -4%[1.06 µM]
CCOc1cc(C2CC(=O)Nc3nc(SCc4ccccc4)[nH]c(=O)c32)ccc1O (stereo unspecified)
    10% | 10%
CCOc1cc(CNC(=O)Cn2c(=O)c3cccn3c3ccc(F)cc32)cc(OCC)c1OCC
    0% | -17%
Cc1ccccc1CS(=O)Cc1ccc(F)cc1Cl (stereo unspecified)
    -1% | 32%[activator]
Cc1c(NC(=O)c2ccc(Br)o2)cccc1-c1nc2ccccc2o1
    -5%&0% | 10%&27%
Cc1c(Cl)cccc1NC(=O)c1oc2ccc(S(=O)(=O)N3CCC4(CC3)OCCO4)cc2c1C
    27% | 43%[activator]

Continuation:
Values run as follows: StopGo FLuc | StopGo RLuc
O=c1c(-c2ccccc2)coc2cc(OCCN3CCCCC3)ccc12
    129%[activator] | 2%
Cc1ccc(CS(=O)Cc2ccc(C(=O)NCCc3ccccc3)o2)cc1 (stereo unspecified)
    25% | -5%
O=S(=O)(c1ccc(F)cc1)N1CCN(Cc2ncc(-c3ccc(F)cc3)o2)CC1
    -1% | ?
CCCc1sc(C(=O)OCC(=O)NC(=O)NC2CC2)cc1CC
    13% | 7%
Cc1nn(-c2nc3c(c(=O)n(Cc4ccccc4Cl)c(=O)n3C)n2C)c(C)c1C
    0% | 13%
CCCc1nnc2sc(COc3ccccc3OCC)nn12
    24% | 6%
COc1cc(/C=C2\NC(=O)NC2=O)c(Br)cc1OCc1ccccc1F
    0% | 46%[activator]
COc1ccc(CCNC(=O)c2ccc(Cn3c(=O)[nH]c4cc(OC)c(OC)cc4c3=O)cc2)cc1OC
    ? | -14%
O=C(NCc1cccs1)c1ccc(CSc2nc3cccnc3n2Cc2ccccc2)cc1
    -8% | 56%[activator]
CCOC(=O)C1=C(C)NC(=O)C1(NC(=O)c1ccccc1Cl)C(F)(F)F (stereo unspecified)
    -1% | 9%

Full records, looked up by structure:
Listed for O=S(=O)(c1ccc(F)cc1)N1CCN(Cc2ncc(-c3ccc(F)cc3)o2)CC1 = StopGo FLuc: -1%; StopGo RLuc: ?
Listed for CCCc1nnc2sc(COc3ccccc3OCC)nn12 = StopGo FLuc: 24%; StopGo RLuc: 6%

(more compounds)
Values run as follows: StopGo FLuc | StopGo RLuc
Cc1nc(N)sc1Cc1ccccc1
    23% | 1%[1.06 µM]
O=C(O)CSCc1ccncc1
    4% | 7%
COc1ccccc1NC(=O)N1CCN(c2nnc(C)c3c(C)n(-c4ccccc4)nc23)CC1
    7% | 20%
O=C(CCc1ncc(-c2ccccc2)o1)NC12CC3CC(CC(C3)C1)C2
    5% | 0%
O=Cc1cn[nH]c1-c1ccccc1
    15% | 7%
CCOc1ccc(OCC)c(NC(=O)c2nc3ccccc3nc2N2CCCC2)c1
    -3% | -3%
O=C(Nc1ccc(Cl)cc1Cl)c1cc(S(=O)(=O)N2CCCCCC2)ccc1F
    2% | 9%
CN(C)c1ccc(-c2nnc3n(Cc4ccccc4)c(=O)c4ccccc4n23)cc1
    -9% | -6%
CCC(CNC(=O)c1cc(=O)c2ccccc2o1)c1ccccc1 (stereo unspecified)
    -13% | -10%
COc1ccc(/C=C/C(=O)c2ccc(NC(=O)C34CC5CC(CC(C5)C3)C4)cc2)cc1
    0% | 16%
Fc1cccc(-c2nnn3c2nc(NCCc2ccccc2)c2ccccc23)c1
    50%[activator] | -7%
O=c1c(NCc2ccccc2Cl)nccn1-c1ccccc1
    134%[activator] | 9%
CCS(=O)(=O)N1CCCc2cc(C(=O)Nc3ccccc3C(=O)OC)ccc21
    60%[activator] | 34%[activator]
CCCN(CCC)S(=O)(=O)c1ccc(NC(=O)Cn2cnc3c2c(=O)n(C)c(=O)n3C)cc1
    -3% | 6%
C#CCNC(=O)C[C@H]1C[C@@]2(C(=O)OC)C(=C[C@H](COCc3ccccc3)O[C@@H]2C)N(CCCCCCCC)C1=O
    -12% | 64%[activator]
Clc1ccccc1-c1nn2c(-c3ccc4ccccc4n3)nnc2s1
    40%[activator] | -6%
CCOc1cc(C(=O)NC2(C(=O)OC)CCCCC2)ccc1OC
    -5% | -5%
CC(C)(C)C(=O)Oc1ccc2c(=O)c(-c3ccc(Cl)cc3)coc2c1
    185%[activator] | 5%
CSc1ccc(S(=O)(=O)N2CCN(C)CC2)cc1
    0% | -9%
Cc1cc(OCc2n[nH]c(=S)n2C)ccc1Cl
    48%[activator] | 1%
CCOc1ccc(CN2C(=O)c3ccccc3Sc3ccc(C(=O)N4CCN(C)CC4)cc32)cc1
    -15% | -9%
CCN(C(=O)COC(=O)c1cc(=O)c2ccccc2o1)c1cccc2ccccc12
    -11% | -3%
C=CCN1C(=O)COc2ccc(NC(=O)c3cc(=O)c4c(C)cc(C)cc4o3)cc21
    -4% | -1%
CCn1cc(CCC(=O)NCc2ccccc2OC)c2ccccc21
    1% | 19%
Cn1c(SCc2cc(=O)n3[nH]cc(C#N)c3n2)nnc1-c1ccc(C(C)(C)C)cc1
    71%[activator] | -9%
CC(C)(C)c1ccc(OCc2nc3ccccc3n2CCOc2ccccc2)cc1
    33%[activator] | -5%
CCc1nnc(NC(=O)COc2ccc3c(C)cc(=O)oc3c2)s1
    3% | -5%
COCCNC(=O)NC(=O)CN(Cc1ccccc1)c1cccc(C)c1
    14% | 9%

A portion of the library (hit frequency here may not be typical).
